Assay outcomes deposited in PubChem by ICCB-Longwood Screening Facility, Harvard Medical School.
MenB inh: Mtb MenB enzyme inhibition. MenB enzyme assay, absorbance read-out; some hits fall short of the stated cut. inhibition, %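 (about 12 µg/mL by stock and volumes)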. 0.43% of 100,000 active. AID 540299;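 active = mean of two replicates above 30%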;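 also: 0% = no compound and 100% = wells with inactive enzyme; the first replicate is given; strong numbers were not always called active; inactives centre near -10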
Target sequence (P9WNP5 whole entry, looked up): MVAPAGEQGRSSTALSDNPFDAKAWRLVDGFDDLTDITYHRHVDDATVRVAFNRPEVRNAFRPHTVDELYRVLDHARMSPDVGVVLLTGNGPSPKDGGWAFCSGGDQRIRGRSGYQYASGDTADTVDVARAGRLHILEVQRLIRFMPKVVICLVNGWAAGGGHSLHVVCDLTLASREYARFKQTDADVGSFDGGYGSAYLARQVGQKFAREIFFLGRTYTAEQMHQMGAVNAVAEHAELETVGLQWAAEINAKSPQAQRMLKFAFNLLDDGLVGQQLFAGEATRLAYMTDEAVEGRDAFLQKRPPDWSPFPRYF
Mtb MbtI inh: MbtI salicylate synthase inhibition | P9WFX0 | purified MbtI enzyme, fluorescence intensity read-out | inhibition, %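 (about 17 µg/mL by stock and volumes)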 | 0.89% of 100,000 active | AID 493033;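 active = above 50% in both replicates, above 80% if mildly self-fluorescent; inactive = the rest, strongly fluorescent compounds included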;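 also: 0% = mean of negative and 100% = mean of positive controls; one replicate is shown; some compounds called inactive have numbers as strong as hits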
Target sequence (P9WFX0 whole entry, looked up): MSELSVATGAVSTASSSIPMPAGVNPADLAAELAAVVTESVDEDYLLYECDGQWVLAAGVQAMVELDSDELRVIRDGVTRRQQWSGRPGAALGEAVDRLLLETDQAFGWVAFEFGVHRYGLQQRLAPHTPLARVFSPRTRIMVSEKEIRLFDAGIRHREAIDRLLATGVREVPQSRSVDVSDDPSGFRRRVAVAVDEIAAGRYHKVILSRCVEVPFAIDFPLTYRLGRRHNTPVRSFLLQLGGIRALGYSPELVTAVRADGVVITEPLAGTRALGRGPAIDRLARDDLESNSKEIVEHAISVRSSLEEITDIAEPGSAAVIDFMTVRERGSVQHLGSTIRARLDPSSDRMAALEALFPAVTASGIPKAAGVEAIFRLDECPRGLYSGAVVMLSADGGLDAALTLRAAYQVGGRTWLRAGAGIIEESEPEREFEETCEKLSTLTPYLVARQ
PV pol inh: poliovirus RNA polymerase inhibition; poliovirus polymerase elongation, fluorescence polarization; hits give low values; % elongation, % (compound at 16.7 µg/mL); 0.66% of 150,000 active; in the data active = % elongation below about 90%; also: some results filed as inactive read as strong as hits
PV pol inh intensity: further read-out of PV pol inh, marked with its call; % elongation; measured here: total intensity read-out; formula for this scale not given here;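 total fluorescence in place of polarization; lower means less elongation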
Active calls of the source: *; . = no result given; & = joins results of further samples.

SMILES	MenB inh	Mtb MbtI inh	PV pol inh	PV pol inh intensity
Cc1ccc(C(=O)Oc2ccc(C3SCCS3)cc2)cc1	-18	.	94	86
CC1(C)CC(=O)C(C=NC2CCCCC2)=C(O)C1	-6	7	102	102
COc1ccc(Cl)cc1NC(=O)CN(C)S(=O)(=O)c1ccc2c(c1)CCCC(=O)N2	-1	5	98	101
CC(O)c1ccc(-c2ccc(CO)o2)cc1 (stereo unspecified)	-1	13	103	109
CCSc1nnc(-c2c[nH]c3ccccc23)n1CCOC	-7	2	102	94
CCc1nnc(NC(=O)CSc2nc(-c3ccccc3)cc(C(F)(F)F)c2C#N)s1	-31	0	104	97
COc1ccc(C2CC(=O)N(C)c3ccccc3S2)cc1OC (stereo unspecified)	-14	1	101	104
CN1CCN(NS(=O)(=O)c2ccc3ccccc3c2)CC1	10	26	100	102
CCc1c(C(=O)OC)nnc2cc(C)nn12	9	0	103	108
O=C(NCC1CCCCN1)c1cc(OCC(F)(F)F)ccc1OCC(F)(F)F (stereo unspecified)	-6&1	21&16	101&100&98	103&101&101
CNC(=S)Nc1cc(Cl)cc(Cl)c1	-19	-4	100	104
Cc1cccc(-c2nc(CNC(=O)C3CCCO3)cs2)c1 (stereo unspecified)	6	-8	100	100

Of the compounds above, these have two or more sulfur atoms:
SMILES	MenB inh	Mtb MbtI inh	PV pol inh	PV pol inh intensity
Cc1ccc(C(=O)Oc2ccc(C3SCCS3)cc2)cc1	-18	.	94	86
CCc1nnc(NC(=O)CSc2nc(-c3ccccc3)cc(C(F)(F)F)c2C#N)s1	-31	0	104	97

Next results
SMILES	MenB inh	Mtb MbtI inh	PV pol inh	PV pol inh intensity
O=C(O)C1CC2C=CCC(C1)C2=O (stereo unspecified)	.	-1	103	100
O=C(NCc1ccc(Cl)cc1)c1cccc(S(=O)(=O)N2CCCC2)c1	.	-5	103	100
CCOC(=O)c1cc(=O)c2ccc(OCc3ccccc3)cc2o1	-21	-6	100	109
c1cc(CNC2CC2)ccn1	12	-3	101	103
C=CCN1C(=O)c2ccc(C(=O)OCC(=O)c3cc(C)n(C)c3C)cc2C1=O	-2	-2	98	108
CCC1(C)Oc2ccc(NC(=O)c3cc(F)c(F)cc3Cl)cc2O1 (stereo unspecified)	-8	.	101	92
O=c1[nH]c(C2CCCN(S(=O)(=O)c3cccc(Cl)c3)C2)nc2c1nnn2Cc1ccc(Cl)cc1 (stereo unspecified)	6	-10	102	103
NS(=O)(=O)c1cc(Cl)c(NC(=O)CSC2CCCC2)c(Cl)c1	0	-19	101	105
O=C(Nc1cccc(F)c1)c1oc2ccccc2c1NC(=O)C1CCCC1	1	33	99	99
O=C(OCC(=O)N1CCc2ccccc2C1)c1ccccc1O	.	-29	102	106
Cc1ccccc1CSCCC(=O)NC1CCCCC1	1	5	103	100
COc1ccc(C(=O)c2[nH]c(-c3ccc(OC)cc3)cc2-c2ccccc2)cc1	-22	.	103	105

Part of the list above, as labelled records.
NS(=O)(=O)c1cc(Cl)c(NC(=O)CSC2CCCC2)c(Cl)c1
  MenB inh = 0
  Mtb MbtI inh = -19
  PV pol inh = 101
  PV pol inh intensity = 105
O=C(Nc1cccc(F)c1)c1oc2ccccc2c1NC(=O)C1CCCC1
  MenB inh = 1
  Mtb MbtI inh = 33
  PV pol inh = 99
  PV pol inh intensity = 99
O=C(OCC(=O)N1CCc2ccccc2C1)c1ccccc1O
  MenB inh = .
  Mtb MbtI inh = -29
  PV pol inh = 102
  PV pol inh intensity = 106
Cc1ccccc1CSCCC(=O)NC1CCCCC1
  MenB inh = 1
  Mtb MbtI inh = 5
  PV pol inh = 103
  PV pol inh intensity = 100

The results go on:
SMILES	MenB inh	Mtb MbtI inh	PV pol inh	PV pol inh intensity
NNC(=O)CNC(=O)C12CC3CC(CC(C3)C1)C2	4	0	102	99
O=C(CN1CCN(S(=O)(=O)c2cc(C(F)(F)F)ccc2Cl)CC1)N1CCc2ccccc2C1	-18	-11	99	101
Cc1ccc(CN(C)CC(=O)Nc2cc(Cl)ccc2C#N)cc1	-101	-5	100	104
C=CCN(C(=O)c1cccc2c1SCCC2=O)c1ccccc1	-22	-14	104	102
C=CCc1ccccc1COCC(O)CN1CC(C)OC(C)C1 (stereo unspecified)	.	0	102	101
O=C(COCc1cc(-c2ccco2)on1)NCCN1CCOCC1	-2	-4	102	102
O=C(O)Cc1cc(C(F)(F)F)on1	.	-2	102	100
COc1ccc(C2CC(=O)N(CC(=O)Nc3ccc4c(c3)OCO4)c3ccccc3S2)cc1OC (stereo unspecified)	-15	-1	105	110
CCOCc1c(C(=O)Nc2cccc(C(=O)NC3CC3)c2)oc2ccccc12	-13	-4	104	105
Cn1ccsc1=NC(=O)c1ccc2c(c1)S(=O)(=O)c1ccccc1C2=O	-22	4	107	117
O=C1NN=C(c2ccccc2)/C1=C1\OC(c2ccccc2)=CS1	3	-1	101	101
COc1ccc(Cl)cc1NC(=O)CN(C(=O)c1ccco1)C1CCCCC1	-74	5	103	101
NC(=O)CN(c1ccc(Cl)cc1Cl)S(=O)(=O)c1ccccc1	-14	.	103	104
Cc1noc(C)c1COc1cccc(C(=O)OC(C)C#N)c1 (stereo unspecified)	-54	19	95	99
CCOC(=O)Cn1cc(C#N)c2ccccc21	-2	-8	100	101
NNC(=O)c1cc2c(s1)CCCCC2	6	3	97	106
Cc1c(Cl)cn2c(=O)cc(CN3CCN(Cc4ccc5c(c4)OCO5)CC3)nc2c1Cl	-11	2	100	109
O=C(C1CC(=O)N(c2ccc3c(c2)OCCO3)C1)N1CCN(c2ccccc2)CC1 (stereo unspecified)	-9	-7	97	107
CCCSc1nnc(N)s1	-15	15	102	102
COc1ccc(NC(=O)c2ccc(COc3ccc(C(C)C)cc3)o2)cc1	-12	15	103	98
COc1ccccc1C(=O)OCC1CCCN2CCCCC12 (stereo unspecified)	4	.	97	104
CC(C)NC(=O)CSc1nc2ccccc2s1	-31	30	105	98
CC(Sc1nc2c(cc1C#N)CCCCC2)C(=O)O (stereo unspecified)	-1	-10	106	102
NC(N)=NC(N)=Nc1ccccc1Br	-15	4	102	104

Full records, quoted from the list. Order of values: MenB inh | Mtb MbtI inh | PV pol inh | PV pol inh intensity
Shown for Cc1c(Cl)cn2c(=O)cc(CN3CCN(Cc4ccc5c(c4)OCO5)CC3)nc2c1Cl → -11 | 2 | 100 | 109
Shown for NNC(=O)CNC(=O)C12CC3CC(CC(C3)C1)C2 → 4 | 0 | 102 | 99

Remaining list, next part:
SMILES	MenB inh	Mtb MbtI inh	PV pol inh	PV pol inh intensity
Cc1sc2ncn(CC(=O)c3ccccc3)c(=O)c2c1C	-28	-13	108	101
O=S(=O)(c1cccc2nsnc12)N1CCN(C(c2ccccc2)c2ccccc2)CC1	3	-1	100	100
CC(C#N)Sc1nnc(C2CCCCC2)n1N (stereo unspecified)	-14	-8	99	99
CCn1c(SCC(=O)N2CCC(C)CC2)nnc1-c1ccccc1O	3	-10	107&101	102&100
CCc1nc2cccnc2n1-c1ccc(CC(=O)NCC2CCCO2)cc1 (stereo unspecified)	-8	-5	103	107
CNS(=O)(=O)c1ccc(Cl)cc1Cl	9	3	105	109
CCn1c2ccccc2c2nnc(SCC(=O)NCc3ccco3)nc21	-6	1	102	102
O=c1n(CC(O)CN2CCCCC2)c(=O)n(CC(O)CN2CCCCC2)c(=O)n1CC(O)CN1CCCCC1 (stereo unspecified)	-16	-11	103	101
Nc1nc(CSC2CCS(=O)(=O)C2)nc(NCCc2ccccc2)n1 (stereo unspecified)	-18	-6	103	102
CCC(=O)Nc1ccc(-c2nc3cccnc3s2)cc1	6	104	101	98
O=C(c1cnc2ccccn12)C(F)(F)SCc1c(Cl)cccc1Cl	1	-15	108	112
COc1ccccc1C(C)NC(=O)c1ccc2nc[nH]c2c1 (stereo unspecified)	-16	-1	109	105
Cn1c(N/C(=C\C(=O)c2cccs2)C(F)(F)F)nc2ccccc21	.	8	105	107
CSc1ccc(NC(=O)N(Cc2ccccc2)C(=O)CC#N)cc1	-15	3	102	102
CN(Cc1ccccc1)S(=O)(=O)c1ccc(N2CCCCS2(=O)=O)cc1	-16	-18	99	101
CC(=O)NN=C1CCC(C(C)(C)C)CC1 (stereo unspecified)	2	0	103	100
CCn1c(N)nc2c1c(=O)[nH]c(=O)n2C	-12	.	107	111
Clc1ccc(OCc2cn3cccnc3n2)cc1	24	101	102	106
O=C(C1CC(O)CN1S(=O)(=O)c1ccc2ccccc2c1)N1CCc2ccccc2C1 (stereo unspecified)	-28	-4	103	104
O=C(OC(C(=O)NCC1CCCO1)c1ccc(F)cc1)c1ccco1 (stereo unspecified)	-28	-7	104	102
COc1cccc(C(C(=O)NCC2CCCO2)N(CC2CCCO2)C(=O)CC2C(=O)c3ccccc3S2(=O)=O)c1 (stereo unspecified)	-21	-6	101	104
O=c1[nH]c2ccccc2n1CCCSc1nnc(C2CCCCC2)o1	-15	-7	102	98
O=C(NCCn1ccc2ccccc21)c1cccc2ccccc12	-18	7	101	105
COc1ccccc1NC(=O)CC(c1ccccc1)c1ccc(C)cc1O (stereo unspecified)	9	3	96	98
O=C(/C=C/c1cccs1)N1CCCCC1c1nc2ccccc2s1 (stereo unspecified)	-17	11	97	91
Cc1ncc(CSc2nc3ccc(C(F)(F)F)cc3[nH]2)c(CO)c1O	-11	-4	101	103
COc1cc2c3c(c1OC)-c1cc(OC(C)=O)ccc1CC3N(C(C)=O)CC2 (stereo unspecified)	-7	-4	103	103
CCc1ccc(NC(=O)Cn2c(=O)oc3ccccc32)cc1	-18	-4	99	98
O=C(COC(=O)C1CCCN1C1=NS(=O)(=O)c2ccccc21)Nc1ccc(F)cc1 (stereo unspecified)	-15	-1	106	98
CC1CCC(C(C)C)C(OC(=O)COC(=O)c2cc(=O)[nH]c(=O)[nH]2)C1 (stereo unspecified)	-3	5	103	102
CCC(=O)N=c1sc2cc(OC)c(OC)cc2n1CCOC	-2	-3	103	101
O=C1CNC(=O)N1Cc1ccc(F)cc1	34*	1	99	100
CS(=O)(=O)c1ccccc1C(=O)Nc1ccc2sccc2c1	-22	-2	107	99
C=C[C@@]1(C)CC(=O)[C@]2(O)[C@@]3(C)[C@H](O)CCC(C)(C)[C@@H]3[C@H](O)[C@H](OC(C)=O)[C@@]2(C)O1	1	-10	100&101	105&104
CCc1nn(CC(=O)NCc2cc(Br)ccc2OC)c(=O)c2cc3sc(C)cc3n12	-24	-2	102	100
O=C1CCCN1CCCNC(=S)Nc1ccc(Nc2ccccc2)cc1	-16	1	100	102

Looked up by compound from above:
SMILES	MenB inh	Mtb MbtI inh	PV pol inh	PV pol inh intensity
CS(=O)(=O)c1ccccc1C(=O)Nc1ccc2sccc2c1	-22	-2	107	99
O=C1CCCN1CCCNC(=S)Nc1ccc(Nc2ccccc2)cc1	-16	1	100	102

Next compounds
SMILES	MenB inh	Mtb MbtI inh	PV pol inh	PV pol inh intensity
CC1CCN(C(=O)COC(=O)c2ccc(Br)o2)CC1	.	-5	100	103
CCC1(c2ccccc2)C(=O)NCNC1=O	-6&-3	-12&-24	100&99	101&101
COc1ccc(-c2cccc(NC(=O)C(F)(F)F)c2)nn1	-34	9	107	111
COc1ccc(N2CCN(C(=O)C3CCN(C(=O)c4cc5sccc5n4C)CC3)CC2)cc1	-19	8	105	103
Sc1ccc2ccccc2c1	-32	32	90*	91*
CC(CN1CCNCC1)(NS(=O)(=O)c1ccccc1)c1ccccc1 (stereo unspecified)	-22	.	99	92
O=C(NCCN1CCOCC1)N1CCNC1=O	-33	0	102	102
Cc1ccccc1NC(=O)C(C)Sc1nnc(-c2ccccc2C)o1 (stereo unspecified)	22	2	101	104
O=C(Nc1ccc2c(c1)OCCO2)N1C=CC(C(F)(F)F)=NCC1	-29	-2	102	98
COc1ccc(Oc2nc(C)cc(C)c2C#N)cc1	5	-19	101	105
Cc1oc(-c2ccc(Cl)cc2)nc1CS(=O)CC(=O)NCCN1CCCC1 (stereo unspecified)	7	33	100	104
COc1ccc(C)cc1-n1c(=O)c2ccccc2n2c(SCc3cc(=O)n4c(C)csc4n3)nnc12	-21	37	97	94
CCCOc1ccc(-c2nc(N(CC)CC)c3ccccc3n2)cc1	-28	8	101	100
C#C[C@]1(O)CCC2C3CCC4=CC(=O)CC[C@@H]4C3CC[C@@]21C (stereo partly specified)	7	-14	98	102
CCc1c(C(=O)OC)c2cc(NS(C)(=O)=O)ccc2n1S(C)(=O)=O	-2	1	101	102
COc1ccccc1-n1c(C)nc(=O)c(-c2ccccc2)c1C	-17	-220	103	106
O=c1ccc2cc(O[C@@H]3O[C@H](CO)[C@@H](O)[C@H](O)[C@H]3O)c(O)cc2o1	0	-164	102	103
O=C1C=CC(=O)N1c1ccccc1Sc1ccccc1	.	99*	101	106
Cn1c2c(c3ccccc31)C(C)(C)Cc1c-2cnn1-c1ccccc1	-29	106	103	102
CCC(=O)N(c1nnc(SC(C)C(=O)c2ccc(NS(C)(=O)=O)cc2)s1)C1CC1 (stereo unspecified)	-17	-10	102	103
COC(=O)C1CCC(C(=O)O)C1(C)C (stereo unspecified)	.	-16	104	108
COc1cc(=O)[nH]c(SCC(=O)Nc2ccc(Br)cn2)n1	-12	-4	99	98
Cc1ccc(NC(=O)NCC2CN(CC(C)C)CCO2)cc1 (stereo unspecified)	-11	-4	101	108
O=C(ON1C(=O)c2cccc3cccc(c23)C1=O)c1ccncc1	-7	-6	103	106
CCC(C)NC(=O)Cc1ccc(OC)cc1 (stereo unspecified)	4	.	104	108
Cc1ccccc1/C=C1\Cc2ccccc2C1=O	-9	-3	102	101
Cn1cc(S(=O)(=O)N2CCCC2)cc1C(=O)N1CCc2ccccc2C1	-9	-9	100	100
Cc1cc(C)n(CC(=O)NC23CC4CC(CC(C4)C2)C3)c(=O)c1C#N	9	15	102	103
